Marburg entry inh: inhibitors of Marburg virus binding or cell entry; Marburg virus pseudotyped entry inhibition, cell reporter; control for the full effect not named in the record; about a third of the inactives were read at about 46 µM; Potency, µM (doses to about 37.8 µM), without a hit: top-dose activity change, negative = inhibition, actives largely listed as inhibitors; actives 1.8% (n = 300,000); active = well fitted inhibition curve with a large enough effect; inconclusive = small, poorly fitted or top-dose-only effect, or effect the other way; inactive = flat fitted curve, though single readings scatter; tested in HEK293 cells; about a fifth of its hits are not listed in these tables; further: on the % scale 0 is the no-effect control and ±100 the full control effect; luciferase read-out
Cruzain inh noDet: inhibitors of Trypanosoma cruzi cruzain without detergent; P25779; purified cruzain, Z-FR-AMC fluorescence, no detergent; Potency, µM, for the others: max response, negative = inhibition, usual class: inhibitors; actives 2.3% (n = 200,000); AID 1476;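 further: plate controls were enzyme without inhibitor for no effect and buffer without enzyme for full effect; nearly all actives have a fitted effect of over 40% in size; top concentration of the series not given in the record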
Target sequence (P25779 123-467 limits assumed): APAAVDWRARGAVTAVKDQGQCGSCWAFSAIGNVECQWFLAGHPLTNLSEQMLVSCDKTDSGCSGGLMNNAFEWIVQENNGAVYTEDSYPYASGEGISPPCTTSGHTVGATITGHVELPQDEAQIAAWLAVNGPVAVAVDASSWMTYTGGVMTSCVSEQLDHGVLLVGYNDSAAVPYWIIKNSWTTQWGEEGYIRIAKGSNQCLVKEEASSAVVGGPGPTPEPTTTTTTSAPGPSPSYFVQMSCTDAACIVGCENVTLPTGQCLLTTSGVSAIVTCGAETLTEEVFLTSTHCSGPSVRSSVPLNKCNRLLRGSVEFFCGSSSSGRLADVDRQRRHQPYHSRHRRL
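Detergent-free condition (0.00005% Triton X-100) in acetate buffer pH 5.5 with DTT. 1.5 nM enzyme and compound were pre-mixed 15 min, then 2 uM Z-FR-AMC substrate added; reaction progress from fluorescence change between first and third reads (60 s).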
StopGo reporter: FMDV 2A StopGo reporter, luciferase signal; human cells with a luciferase reporter of 2A StopGo recoding; control for the full effect not named in the record; Potency, µM (series often up to 57.9 µM), inactives show at the top dose signal change, negative = less light; actives 1.2% (n = 410,000); active = well fitted falling curve with a large enough effect; inconclusive = small, poorly fitted or top-dose-only effect; inactive = no such curve, though single readings can be large or run the other way; tested in HEK293T cells; further: on the % scale 0 is the no-effect control and ±100 the full control effect; nearly all actives have a fitted effect of over 45% in size; luciferase light after 4 h
SARS PLP yeast: SARS-CoV PLP inhibition in yeast. S. cerevisiae expressing SARS-CoV PLpro, growth rescue; control for the full effect not named in the record. Potency, µM (highest dose often 32.9 µM), without a hit: top-dose activity, positive = growth rescue. actives 0.19% (n = 330,000). AID 485353; active means well fitted rising curve with a large enough effect; inconclusive means small, poorly fitted or top-dose-only effect; inactive means no such curve, though single readings can be large or run the other way; further: 0% is about no effect; nearly all actives have a fitted effect of over 55% in size; growth read by luminescence after 48 h
Cruzain Triton: blocks cruzain activity in presence of Triton detergent. P25779. purified cruzain, Z-FR-AMC fluorescence, 0.01% Triton. Potency, µM, inactives show max response, negative = inhibition, most hits filed as inhibitors. actives 0.43% (n = 200,000). AID 1478;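 further: plate controls were neutral wells for no effect and buffer without enzyme for full effect; nearly all actives have a fitted effect of over 40% in size; top concentration of the series not given in the record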
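Enzyme 1.5 nM, Z-FR-AMC 2 uM, NaOAc 100 mM pH 5.5, DTT 5 mM, Triton X-100 0.01%; 15 min RT compound preincubation; kinetic ex360/em450, 60 s delta.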
NS1 inh: blocks influenza NS1 protein function. S. cerevisiae slowed by influenza A NS1, growth recovery by OD600. Potency, µM (series often up to 46.1 µM), for the others: at the highest dose activity, positive = more growth. actives 0.4% (n = 270,000); active means well fitted rising curve with a large enough effect; inconclusive means small, poorly fitted or top-dose-only effect; inactive means no such curve, though single readings can be large or run the other way; further: nearly all actives have a fitted effect of over 50% in size
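Read-out: OD600 growth recovery of NS1-expressing budding yeast. Cells grown overnight at 30C in -URA glucose medium, washed, resuspended and diluted 1:100 in 2% galactose assay medium, pH 6.0. Same strain lacking NS1 served as positive control.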
RE007 growth inh: less growth of the S. pombe RE007 Vpr strain; S. pombe RE007 Vpr strain, BacTiter-Glo ATP luminescence, 24 h; control for the full effect not named in the record; Potency, µM (top dose mostly 92.2 µM), for the others: at the top dose activity change, negative = less growth; actives 0.21% (n = 360,000); active = well fitted falling curve with a large enough effect; inconclusive = small, poorly fitted or top-dose-only effect; inactive = no such curve, though single readings can be large or run the other way;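 further: on the % scale 0 is the no-effect control and ±100 the full control effect; nearly all actives have a fitted effect of over 50% in size; the assay follows cell death caused by Vpr and the record does not say whether a fall means rescue or toxicity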
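Fission yeast RE007 carrying one integrated HIV-1 vpr copy, seeded at OD 0.01 in PMG+AL medium with 23 nL pinned compound. Grown 24 h at 30 degrees; viability read by BacTiter-Glo luminescence after 5 min.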
Lassa entry inh: Lassa virus entry inhibition | Potency, µM (top dose mostly 37.9 µM), without a hit: at the top dose activity change, negative = inhibition, actives largely listed as inhibitors | AID 540256 | Lassa virus pseudotype entry inhibition, cell reporter; control for the full effect not named in the record | actives 1.2% (n = 300,000); active means well fitted inhibition curve with a large enough effect; inconclusive means small, poorly fitted or top-dose-only effect, or effect the other way; inactive means flat fitted curve, though single readings scatter; tested in HEK293 cells; further: on the % scale 0 is the no-effect control and ±100 the full control effect; nearly all actives have a fitted effect of over 50% in size; luciferase read-out
* = called active by the depositor; ? = inconclusive; . = no result given; & = joins results of further samples; [ ] = dose if it differs, or a comment. Unless noted, the call rests on the fitted dose curve; in most records, active means well fitted curve in the direction sought with a large enough effect; inconclusive means small, poorly fitted or top-dose-only effect, or another doubt; inactive means no such curve, though single readings can be large; an effect the other way counts as inactive or inconclusive. Potency means the concentration at half of the fitted maximal effect.

#	structure	Marburg entry inh	Cruzain inh noDet	StopGo reporter	SARS PLP yeast	Cruzain Triton	NS1 inh	RE007 growth inh	Lassa entry inh
1	O=C(c1ccco1)N1CCN(c2cc(=O)n(C3CCCCC3)c(=O)[nH]2)CC1	-23.0%	7.9%	-13.6%	-4.3%	4.7%	3.3%	10.7%	-1.5%
2	CCc1ccc(NC(=O)CSc2nc(C)c(C(=O)Nc3ccc(Cl)cc3)c(-c3ccc(OC)cc3)c2C#N)cc1	.	7.94µM*	-13.1%	.	-1.7%	.	.	6.7%[46.1 µM]
3	CN1CCN(C(=O)c2ccc(-c3nn(C)c(=O)c4ccccc34)cc2)CC1	-0.7%	.	-11.6%	.	.	9.9%	-3.5%	-13.6%
4	CSC(=S)N/N=C/c1c[nH]c2ccccc12	?	1.9%	19.1%	15.3%	-15.8%	-30.0%	0.7%	-11.6%
5	N#Cc1ccccc1CSc1ccc(-c2nc3ccccc3[nH]2)cn1	?	-6.0%	.	-9.7%	0.3%	23.1%	-14.9%	-9.5%
6	COc1cc(SC)ccc1C(=O)Nc1nc2ccccc2[nH]1	.	.	0.0355µM*	-78.6%	.	-22.2%	3.98µM*	.
7	CC1(C)Cc2c(C#N)c(N3CCN(C(=O)c4ccccc4Cl)CC3)nc(-c3ccco3)c2CS1	-25.9%	?	?	-1.5%	11.2µM*	13.5%	6.7%	?
8	COc1ccc(C(C)NC(=O)C2CCCC2)cc1 (stereo not given)	18.7%[46.1 µM]	.	7.3%	2.5%	.	24.7%	16.1%	0.6%[46.1 µM]
9	CC(=O)NCc1nc2cccnc2n1Cc1ccccc1	.	4.8%	-10.4%	.	0.2%	.	.	2.8%[46.1 µM]
10	C#CCOCCOCCOCCNc1nc(N2CCN(C(=O)[C@H](C)n3cc(CCCN=C(N)N)nn3)CC2)nc(N2CCN(C(=O)[C@H](C)n3cc(CCCN=C(N)N)nn3)CC2)n1	37.8%	0.2%	?	6.0%	-1.4%	-1.0%	-5.5%	-12.5%
11	COC(=O)c1cn(NC(=O)/C=C/c2ccc(OC)c(OC)c2)c(=O)c2ccccc12	1.5%	6.9%	-7.2%	?	-13.8%	-0.4%	-11.6%	0.6%
12	CCNC(=O)c1sc2cc(C)ccc2c1Cl	7.1%[46.1 µM]	.	41.5%[activator]	1.4%	.	12.2%	-1.9%	17.5%
13	Cc1onc(-c2ccccc2Cl)c1C(=O)NCCn1ccc2ccccc21	0.0%	-5.6%	-28.0%	-3.1%	-3.2%	-10.5%	-12.9%	9.6%
14	C=CCOc1cccc(C2C(C(=O)c3ccco3)=C(O)C(=O)N2CCN2CCOCC2)c1 (stereo not given)	8.3%[46.1 µM]	6.1%	15.6%	-5.1%	-1.9%	-3.1%	3.8%	3.3%
15	CSCCC(NS(=O)(=O)c1ccc2c(c1)oc(=O)n2C)C(=O)NCCc1ccc(C)cc1 (stereo not given)	.	-5.6%	-20.5%	.	0.9%	.	.	27.0%[46.1 µM]
16	Cc1cccc(NC(=O)COc2ccc3oc4c(c3c2)CCCC4)n1	13.5%	6.0%	10.6%	-13.2%	0.9%	-80.5%	?	?
17	CCc1ccc(C(=O)CSc2n[nH]c(C)n2)cc1	-0.5%	-14.4%	13.0%	-17.2%	-1.1%	-12.9%	1.7%	4.8%
18	O=C(/C=C/Nc1ccc(F)c(F)c1)c1cccs1	?	-8.1%	-28.3%	10.6%	-7.9%	-21.4%	-25.8%	?
19	O=C(NCc1cc(C(F)(F)F)cc(C(F)(F)F)c1)C1CC(c2cccc(F)c2)=NO1 (stereo not given)	.	.	-24.7%	-0.1%	.	-5.3%	5.3%	.
20	Cn1cc(C(=O)OCC(=O)N2CCCC2)c2ccccc21	4.9%	.	-9.9%	0.2%	.	.	-6.0%	10.7%
21	CCOC(=O)c1c(NC(=O)CSc2nnc(-c3ccccc3C)n2C)sc(C(C)=O)c1C	7.1%&-19.0%	9.3%	?	1.7%	-6.5%	-8.5%	2.7%	-13.2%
22	Cc1ccc(/C=C2\SC(=S)N(CCCC(=O)NNC(=O)c3ccccc3O)C2=O)cc1	.	.	8.91µM*	2.0%	.	2.5%	4.6%	.
23	CCOC(=O)CSc1n[nH]c(NC(=O)c2cccc(C)c2)n1	-0.7%	-2.1%	-7.0%	0.4%	3.2%	-1.9%	13.1%	28.3%
24	CN1CCN(C(=O)C(N)Cc2ccccc2)CC1 (stereo not given)	?	.	4.4%	0.1%	.	.	6.9%	0.7%
25	Cc1csc2ncnc(N3CCN(C(=S)Nc4ccc(F)cc4F)CC3)c12	?	.	?	-1.0%	.	-6.9%	83.1%	?
26	O=C(c1ccccc1)c1ccc(C(=O)N2CCCC(C(F)(F)F)C2)cc1 (stereo not given)	0.8%	.	-2.1%	-5.4%	.	.	2.4%	0.4%
27	CCCc1nc2ccccc2c(=O)n1/N=C/c1ccccc1O	?	-9.4%	-24.6%	19.3%	-9.8%	-53.3%	1.2%	?
28	Cc1ccc(Cl)cc1NC(=O)c1cc(CN2CCCC2)on1	.	-1.0%	0.0%	.	-1.6%	.	.	10.0%[46.1 µM]
29	NC(=O)C(=O)N/N=C/c1c2ccccc2cc2ccccc12	-0.1%[46.1 µM]	.	-14.0%	8.8%	.	4.9%	-6.6%	-1.0%[46.1 µM]
30	CC(=O)Nc1ccc2c(c1)C(=Nc1cccc(C)c1)c1ccccc1-2	3.1%[46.1 µM]	.	1.8%	.	.	.	-26.1%	-5.2%[46.1 µM]
31	Cc1ccc(C(=O)NC(=S)Nc2cccnc2Cl)cc1	?	.	58.4%[activator]	-4.7%	.	-3.0%	-12.1%	?
32	C=CCSc1nnc(CSc2nc3sc4c(c3c(=O)[nH]2)CCCC4)n1-c1ccccc1	-21.8%	15.3%	-12.5%	-9.3%	-9.7%	-5.4%	-8.8%	-24.5%
33	CCOc1cccc(-c2c(C(=O)N/N=C/c3cccs3)nnn2-c2nonc2N)c1	11.4%[46.1 µM]	.	6.2%	-0.8%	.	0.3%	4.6%	-9.4%[46.1 µM]
34	CCOc1ccc2nc(NC(=O)c3nc(SCc4ccccc4C)ncc3Cl)sc2c1	2.5%[46.1 µM]	-9.1%	8.4%	.	-0.1%	.	.	11.1%[46.1 µM]
35	COC(=O)c1ccc(NS(=O)(=O)c2c(C)[nH]c(C)c2C(=O)N2CCCC2)cc1	.	.	-6.0%	2.1%	.	6.5%	-11.5%	.
36	Cn1c(N2CCCCC2)nc2c1c(=O)[nH]c(=O)n2C	?	8.0%	17.9%	17.1%	-3.2%	?	24.4%	-2.2%
37	COc1ccc(CN2CCN(C(=O)CC(C)C)CC2)cc1	.	.	-11.4%	5.0%	.	-0.6%	1.3%	.
38	Cc1ccc2nc(SCC(=O)NCc3cccs3)c(C#N)cc2c1	23.2%	10µM*	-11.8%	-0.1%	5.7%	4.7%	-13.4%	7.8%
39	Cc1c(C(=O)NC2CCCCC2)oc2ccc(F)cc12	?	.	32.9%[activator]	-3.8%	.	-18.3%	-20.9%	25.2%[46.1 µM]
40	Cc1ccc(C(=O)N2N=C(c3cccc(NS(C)(=O)=O)c3)CC2c2cccs2)cc1 (stereo not given)	.	.	-12.4%	-1.2%	.	?	1.7%	.
41	O=C(c1ccc(N2CCCCCC2)c([N+](=O)[O-])c1)N1CCc2ccccc21	-21.9%	-7.3%	.	0.8%	-5.2%	10.2%	.	-0.3%
42	COc1ccc(NC(=O)CNC(=O)c2ccco2)cc1S(=O)(=O)Nc1cc(C)ccc1Br	?	.	59.7%[activator]	-16.9%	.	.	16.2%	?
43	CC(=O)c1ccc(NC(=O)c2nc(-c3ccccc3)n(-c3ccc(Cl)cc3)n2)cc1	12.5%[46.1 µM]	12.6µM*	?	.	-4.9%	.	.	-8.9%[46.1 µM]
44	COc1ccc(C(=O)Nc2n[nH]c(-c3ccncc3)n2)cc1	1.7%	-2.8%	27.7%	-9.6%	5.3%	-4.0%	-19.3%	-9.0%
45	CCCCCCC(=O)NN1CCN(C)CC1	16.4%	-7.0%	5.2%	2.1%	3.0%	-4.2%	5.0%	12.3%
46	CCOc1ccc(C2N(c3ccc(F)cc3)C(=O)C3CCCN32)cc1OC (stereo not given)	.	7.6%	-4.9%	4.2%	-0.2%	-5.8%	10.8%	.
47	COc1ccc(C(C)(C)C)cc1NC(=O)COC(=O)c1ncc(Cl)c(Cl)c1Cl	-6.2%	1.7%	-3.2%	-4.8%	-9.6%	-1.1%	-4.4%	-3.6%
48	CCC(C)(C)n1nnnc1C(c1ccncc1)N1CCN(c2cccc(OC)c2)CC1 (stereo not given)	?	10.7%	-8.3%	0.6%	5.8%	4.0%	3.1%	-26.6%
49	CC(C)(C)N1Cc2ccccc2C1=N	-4.8%	-5.0%	-9.1%	14.2%	6.8%	14.6%	-8.7%	-12.4%
50	COc1ccccc1N(CC(=O)NCC1CCCO1)C(=O)CNS(=O)(=O)c1ccc(C)cc1 (stereo not given)	5.8%	9.5%	-6.8%	0.8%	3.6%	-5.9%	9.1%	-5.3%
51	CC(CCc1ccccc1)NC(=O)c1ccc(NC(=O)c2ccc(Cl)cc2Cl)cc1 (stereo not given)	-8.1%	?	-14.8%	6.3%	2.0%	6.7%	-16.4%	-28.0%
52	CC(C)(C)c1csc(NC(=O)c2ccc3nccnc3c2)n1	?	-0.1%	-27.4%	-9.1%	-7.3%	18.9%	39.2%	-3.8%
53	Cc1ccc(OCCNC(=O)c2cccc(S(=O)(=O)NCc3ccccc3)c2)cc1	6.31µM*	.	16.9%	0.0%	.	.	2.9%	?
54	CCC(C)(C)n1nnnc1C(c1ccc(OC)c(OC)c1)N1CCN(C(=O)c2ccco2)CC1 (stereo not given)	-7.5%[46.1 µM]	.	-6.8%	6.6%	.	-8.3%	0.1%	-21.5%
55	CCC(COC(=O)NC)NC(=O)Oc1cccc(C)c1 (stereo not given)	1.1%	-7.1%	-12.4%	-0.8%	1.4%	8.6%	-9.7%	7.3%
56	CCOC(=O)c1cc(C#N)c(N2CCN(c3ccccn3)CC2)nc1-c1ccccc1	?	.	-17.2%	-0.4%	.	.	2.6%	?

Screening results as filed in PubChem BioAssay.

Compounds as they come. About 4.7% of those tested had a hit in this group.
